Bioassay records as filed in PubChem BioAssay.
hNpr1 antagonist – human Npr1 receptor antagonism; P16066; HEK293 hNpr1 GloSensor cGMP, ANP-stimulated luminescence; Potency, µM (top dose mostly 46.3 µM), without a hit: top-dose activity change, negative = inhibition, actives largely listed as inhibitors; 76,000 tested, 1.6% active; AID 1347048; active = well fitted inhibition curve with a large enough effect; inconclusive = small, poorly fitted or top-dose-only effect; inactive = no such curve, though single readings can be large or run the other way;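 also: nearly all actives have a fitted effect of over 60% in size; nearly all hits also lower the signal before the agonist is added; a reference antagonist and vehicle were the controls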
Target sequence (P16066 whole entry, looked up): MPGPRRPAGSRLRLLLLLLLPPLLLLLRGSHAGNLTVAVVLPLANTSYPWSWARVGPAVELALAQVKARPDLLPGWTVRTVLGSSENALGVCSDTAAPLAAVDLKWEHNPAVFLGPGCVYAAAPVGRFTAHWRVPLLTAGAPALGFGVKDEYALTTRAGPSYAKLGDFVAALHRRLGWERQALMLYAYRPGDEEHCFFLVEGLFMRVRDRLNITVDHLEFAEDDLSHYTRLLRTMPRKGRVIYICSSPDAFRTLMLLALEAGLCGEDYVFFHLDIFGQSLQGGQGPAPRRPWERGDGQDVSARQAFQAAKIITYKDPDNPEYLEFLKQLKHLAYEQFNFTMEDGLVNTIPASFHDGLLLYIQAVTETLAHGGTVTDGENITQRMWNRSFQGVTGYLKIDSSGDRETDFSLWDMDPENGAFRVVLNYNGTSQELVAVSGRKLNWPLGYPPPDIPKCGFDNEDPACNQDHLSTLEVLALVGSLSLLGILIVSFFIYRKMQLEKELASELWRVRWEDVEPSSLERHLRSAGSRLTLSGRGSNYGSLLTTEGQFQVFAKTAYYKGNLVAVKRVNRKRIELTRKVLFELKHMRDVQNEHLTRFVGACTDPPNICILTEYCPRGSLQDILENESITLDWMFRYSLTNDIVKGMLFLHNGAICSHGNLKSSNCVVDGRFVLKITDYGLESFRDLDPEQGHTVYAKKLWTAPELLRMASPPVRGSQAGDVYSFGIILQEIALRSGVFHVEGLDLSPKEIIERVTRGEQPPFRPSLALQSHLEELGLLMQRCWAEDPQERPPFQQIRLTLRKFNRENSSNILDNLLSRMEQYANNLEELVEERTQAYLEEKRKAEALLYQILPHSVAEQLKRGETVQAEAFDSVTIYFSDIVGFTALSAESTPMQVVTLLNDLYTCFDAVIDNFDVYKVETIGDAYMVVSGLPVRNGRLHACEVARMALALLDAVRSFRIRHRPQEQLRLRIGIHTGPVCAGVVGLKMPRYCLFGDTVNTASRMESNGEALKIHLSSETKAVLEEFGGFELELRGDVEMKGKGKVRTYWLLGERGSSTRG
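Compound pre-incubated 30 min at room temperature on GloSensor-loaded HEK293 cells stably carrying hNpr1 and the pGS-40F cGMP biosensor. Stimulation uses hNppA at 0.1 nM final; luminescence is taken at baseline and 20 min post-agonist.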
Numbers without * were called inactive; ? = inconclusive; [ ] = remark or other dose. % is scaled to controls: 0 for no effect and ±100 for the full control effect; potency is read from the fitted curve at half-maximal effect.

Start of the listing, in advance, seven compounds:
hNpr1 antagonist | SMILES
-14.3% | O=C(Nc1cccc(Cl)c1F)N1CCCC(Cn2c(C3CC3)nc3cccnc32)C1 (stereo unspecified)
-4.7% | COc1ccc(C(=O)N2CCC3(CC2)CCC(O)(CN(C)C)CC3)cc1
-17.3% | Cn1nc(C(=O)NCCc2noc(-c3ccncc3)n2)c2ccccc21
-2.2%[70.6 µM] | CS(=O)(=O)c1ccc(-c2cnc([C@@H]3COCCN3C3CCCCC3)[nH]2)cc1
-6.1% | CC(C)CN1C(=O)c2cccn2CC1C(=O)NCc1ccc(Cl)cc1 (stereo unspecified)
0.3% | O=C(O)c1cc2c(s1)CN(C1CCCC1)C2
0.4% | Cc1ccc(CN2CCOc3ccc(C(=O)NCc4ccccc4F)cc3C2)o1

Results, from the start:
hNpr1 antagonist | SMILES
-14.3% | O=C(Nc1cccc(Cl)c1F)N1CCCC(Cn2c(C3CC3)nc3cccnc32)C1 (stereo unspecified)
-4.7% | COc1ccc(C(=O)N2CCC3(CC2)CCC(O)(CN(C)C)CC3)cc1
-17.3% | Cn1nc(C(=O)NCCc2noc(-c3ccncc3)n2)c2ccccc21
-2.2%[70.6 µM] | CS(=O)(=O)c1ccc(-c2cnc([C@@H]3COCCN3C3CCCCC3)[nH]2)cc1
-6.1% | CC(C)CN1C(=O)c2cccn2CC1C(=O)NCc1ccc(Cl)cc1 (stereo unspecified)
0.3% | O=C(O)c1cc2c(s1)CN(C1CCCC1)C2
0.4% | Cc1ccc(CN2CCOc3ccc(C(=O)NCc4ccccc4F)cc3C2)o1
5.4%[70.6 µM] | CC(C)C[C@@H]1N[C@H](C(=O)NCCCN2CCCC2=O)Cc2c[nH]c3cccc1c23

Next section
hNpr1 antagonist | SMILES
0.0% | COc1ccc(CN2C=C(C(=O)OCc3noc(-c4ccccc4F)n3)C(C)=NS2(=O)=O)cc1
6.4% | Cc1ccc2oc(=O)n(CCC(=O)N3CCc4c(nc(C)[nH]c4=O)C3)c2c1
3.8% | Cc1cccc(C(=O)N2C(C(=O)NCc3ccc4c(c3)OCO4)COC23CCC(C)CC3)c1 (stereo unspecified)
16.4%[70.6 µM] | C=CCNC(=O)c1cccn2nccc12
-23.6% | Cc1cn2nc(C(=O)Nc3ccc4c(c3)OCCO4)cc2c(N2CCCC2)n1
1.0% | CCc1ccc(NC(=O)C2CC(=O)N(c3n[nH]c4cccc(F)c34)C2)cc1 (stereo unspecified)
-27.1% | CCc1ccc(NC(=O)C2CCc3nc(N4CCN(C(=O)C(C)C)CC4)sc3C2)cc1 (stereo unspecified)
4.3% | O=C(CCc1ccc2c(c1)OCO2)N[C@H](c1cccs1)C1CC(O)C1 (stereo partly specified)

Other compounds follow.
hNpr1 antagonist | SMILES
-18.5%[70.6 µM] | COc1ccc2c(c1)CN(C(=O)COCc1ccccc1)CC[C@H]1COC(=O)N21
0.5% | O=C(N1CCC2(CC1)CN(c1ccncn1)CC2CO)C1(c2ccccc2)CC1 (stereo unspecified)
-7.0% | COc1ccc(CCNC(=O)c2cc3c(N4CCSCC4)nc(C)cn3n2)cc1OC
1.9% | O=C(O)c1ccc(CC2CCN(Cc3ccccn3)C2)cc1 (stereo unspecified)
0.8% | COCCN1C(=O)c2cccn2CC1CNC(=O)C1CCC1 (stereo unspecified)
-8.7% | CCn1cnnc1CC1CCCNC1 (stereo unspecified)
1.6%[70.6 µM] | CN(C)CCN(C)[C@H]1[C@@H]2OC[C@@H](O2)[C@@H](NCc2cnc3ccccc3c2)[C@@H]1O
6.1% | O=C(c1ccc(Cn2cccn2)o1)N1CCC2(CCNCC2)CC1

Other results:
hNpr1 antagonist | SMILES
? | Cn1nc(-c2ccc3c(c2)OCCO3)nc1N1CCCCC1
0.0% | O=C(N1CCC(N[S+](=O)([O-])Cc2ccccc2F)CC1)N1CC2CC(C1)[C@H]1CCCC(=O)N1C2 (stereo partly specified)
-4.5% | O=C(O)c1cccc(CC2CCN(C(=O)CCCN3CCCCC3=O)C2)c1 (stereo unspecified)
0.6% | CCn1ccc(C(=O)N2CCC3(CC2)CC(OCC2CC2)CCO3)n1 (stereo unspecified)
5.1% | Cc1[nH]c2c(C)ccc(C)c2c1CC(=O)N[C@@H]1CCOC[C@H]1OCCO
-0.2%[70.6 µM] | O=C(NCc1ccccc1)O[C@H]1COCCN(c2nc3ccccc3o2)C1
3.7% | CCOc1ccccc1CN1CC[C@H](c2n[nH]c(C)n2)[C@H](NC(=O)C2CCOCC2)C1
5.3% | CCn1ncc(N2CCCC(CC(=O)NCc3cc(F)cc(F)c3)C2)cc1=O (stereo unspecified)

More results:
hNpr1 antagonist | SMILES
8.4% | Cc1cc2c(c(=O)n(-c3ccccc3)c(=O)n2CC(=O)N(C)c2ccccc2)n1C
1.0% | C#CCNC(=O)C[C@@H]1c2nc(NC(=O)C3CCCCC3)sc2C[C@@H]2[C@](C)(CO)[C@H](O)CC[C@]21C
10.3%[70.6 µM] | CCNC(=O)N[C@H]1CC[C@]2(C)CCC([C@H](C)C(=O)N(C)CCC#N)[C@H](O)[C@H]2[C@@H]1C (stereo partly specified)
-0.6%[70.6 µM] | CC1=C[C@@H](CNC(=O)CN(C)C)[C@H](C(C)C)C[C@H]1Cc1nnc(-c2ccccc2F)o1
6.0% | COc1ccc(C(=O)N2CC(c3nnc(C(C)C)o3)C3(CCOCC3)C2)cc1OC (stereo unspecified)
-11.1% | CCn1cnnc1CC1CCN(C(=O)CCCC(=O)n2nc(C)c3ccccc32)CC1
-2.3% | CC(NC(=O)OCc1ccccc1)c1nc2cccnc2n1C1CCCC1 (stereo unspecified)
-1.4% | CN(Cc1ncc[nH]1)C(=O)C1CCC(=O)N(CCN2CCOCC2)C1 (stereo unspecified)

Continued:
hNpr1 antagonist | SMILES
4.5% | O=C(c1cn(C/C=C/c2ccccc2)nn1)N1CCCN(C2CCCCC2)CC1
2.0% | CC(C)N1C(=O)C2(CCCCC2)C1C(=O)NCCCN1CCCCC1 (stereo unspecified)
-2.8% | Cc1cccc(CNC(=O)C2Cn3cccc3C(=O)N2Cc2cccnc2)c1 (stereo unspecified)
-0.2% | COCc1nc(C2CC(NC(=O)c3nn(C)c4c3CCCC4)C2)cc(=O)[nH]1 (stereo unspecified)
6.4%[70.6 µM] | Cc1nn2c(c1-c1ccccc1N1CCCC1)N(C(=O)C(C)C)CCC2
-10.0% | O=C([C@@H]1C[C@H](F)CN1C(=O)NC1CCCC1)N1CCc2ccccc2C1
? | Cc1nn(-c2ccc(C(C)C)cc2)c(C)c1[C@@H]1C=C[C@@H](NCc2cccc(Cl)c2)C1
0.9%[70.6 µM] | COCCNC(=O)c1cnc2c(c1)N(C(=O)Cc1ccc(C(C)C)cc1)CCC2

Reprinted at random: 2 records from the list
hNpr1 antagonist | SMILES
2.0% | CC(C)N1C(=O)C2(CCCCC2)C1C(=O)NCCCN1CCCCC1 (stereo unspecified)
-2.8% | Cc1cccc(CNC(=O)C2Cn3cccc3C(=O)N2Cc2cccnc2)c1 (stereo unspecified)

The listing continues:
hNpr1 antagonist | SMILES
5.9% | CCNC(=O)N1CCCC1c1noc(CCC(=O)NC2CCCC2)n1 (stereo unspecified)
-0.6%[70.6 µM] | CNC(=O)[C@@H](Cc1ccccc1)N1CCC[C@H]1C(=O)N1CCOCC1
3.3% | CN1CCN(CCc2noc(C3CCCCCN3C)n2)CC1 (stereo unspecified)
-2.4% | CC1(C)CN(C(=O)Cn2cc(C(F)(F)F)ccc2=O)C[C@]1(C)O
-26.3% | O=C(Cc1ccsc1)N1CCC2(CC1)CN(Cc1ccccc1)CC2CO (stereo unspecified)
3.3% | Cc1nc2scc(CC(=O)N3CCCC3)n2c(=O)c1-c1cc(C)n(-c2ccc(F)cc2)n1
-5.0% | CC(C)=CCN1CC2(CCN(C(=O)c3cc(=O)[nH]c(=O)[nH]3)CC2)CC1=O
-0.7% | CCOc1ccccc1C(=O)N1CC(c2nnc(-c3ccncc3)o2)C2(CCOCC2)C1 (stereo unspecified)

Carrying on.
hNpr1 antagonist | SMILES
2.1%[70.6 µM] | O=C(O)C[C@@H]1CCN(C(=O)C2CCCCC2)C[C@@H]1CCN1CCOCC1
0.2% | O=C(NC1CCCC1)N1CCCC(Cn2c(C3CC3)nc3cccnc32)C1 (stereo unspecified)
-3.8% | Clc1ccc(Cn2ccnc2-c2cc3n(n2)CCCNC3)cc1Cl
-5.6% | C[S+](=O)([O-])N1CC2(Cc3ccccc3N(C(=O)Cc3ccc(F)cc3)C2)C1
? | CC(C)CCN1CCn2c(nn(-c3ccc([N+](=O)[O-])cc3)c2=O)C1
-2.6% | Cc1cccc(C(=O)NCC2Cn3cccc3C(=O)N2C)c1 (stereo unspecified)
-28.4% | CN1Cc2ccc(NCc3ccccc3)nc2C(C)(C(=O)NCc2ccc3c(c2)OCO3)C1 (stereo unspecified)
-20.2% | Cc1nn(-c2cccc(Br)c2)c(C)c1[C@@H]1C=C[C@@H](NS(=O)(=O)c2ccccc2)C1

The list continues.
hNpr1 antagonist | SMILES
-10.5% | Cc1cccc(CC(=O)N2CCC(Nc3cccn4ncnc34)CC2)c1
-22.3% | COc1ccc(Cl)cc1C(=O)NC1CCN(c2cc(-c3cccs3)[nH]n2)CC1
-1.4% | CCn1nccc1C(=O)N1CCC(N2C(=O)[C@H](OC)[C@@H]2c2ccncc2)CC1
-2.4% | O=C(O)C[C@@H]1CCN(C(=O)c2cccs2)C[C@@H]1CCN1CCN(c2ccc(F)cc2)CC1
2.2% | O=C(NC1CCCC1)c1ccc(N2CC3CC(C2)[C@H]2CCCC(=O)N2C3)nc1 (stereo partly specified)
22.4µM* | Cc1ccc(CN2CCc3nc(C(=O)Nc4ccccc4)oc3CC2)cc1
-9.2% | Cc1ccc(C(=O)N2CCN(c3cc(C(F)(F)F)ncn3)CC2)c(C)c1
2.7% | O=C1CC(c2ccccc2)N(Cc2ccncc2)CCCN(C(=O)C2CCOCC2)CCN1 (stereo unspecified)

More compounds.
hNpr1 antagonist | SMILES
-2.5% | O=C(c1cccc(-n2cnnc2)c1)N1CCCCCC1c1cccc(F)c1 (stereo unspecified)
-20.0% | CC(C)=CCC1(CO)CCCN(Cc2[nH]c3ccc(F)cc3c2C)C1 (stereo unspecified)
0.1%[70.6 µM] | CN(C)c1ccc(-c2nnc([C@H]3CCN(c4nccc(C(F)(F)F)n4)C3)o2)cc1
9.0%[70.6 µM] | O=C1N2CCCC2CN1C1CCN(Cc2cccc(F)c2)CC1 (stereo unspecified)
-4.8% | O=C(c1ccccc1Br)N1CC(n2cc(COc3ccc(F)cc3)nn2)C1
2.6% | Cc1cccc(CN2CC(N(Cc3cccnc3)S(C)(=O)=O)C2)c1
2.4%[70.6 µM] | CC1(C)[C@H](Cc2cc(CCO)on2)C[C@@H]1NC1CCCCC1
-14.1%[70.6 µM] | CC1(COCC2CC2)COc2ccc(C(=O)NCc3ccncc3)cc2N1 (stereo unspecified)

Additional entries:
hNpr1 antagonist | SMILES
8.8%[70.6 µM] | CN(Cc1ccccc1)C(=O)[C@H]1O[C@H](CCN2CCOCC2)CC[C@@H]1O
-11.6% | CCc1cccc2c(C(CC(=O)NCc3ccco3)c3ccc(C)cc3)c[nH]c12 (stereo unspecified)
-4.4%[70.6 µM] | COc1ccc(CNC(=O)[C@@H]2Cc3nc[nH]c3CN2Cc2ccc(Cl)cc2)cc1
-14.6% | CCn1cc(-c2ccc(C)cc2)cc1C(=O)NCc1cccnc1
-8.8% | O=C(c1ccsc1)N1CCN(c2cc(C(F)(F)F)ncn2)CC1
2.4%[70.6 µM] | CNC(=O)[C@@H](C1CC1)N1CCC[C@H]1C(=O)NC(C)C
-23.9%[70.6 µM] | COc1ccc(CN2CCc3nc(C(=O)NCc4ccncc4)oc3CC2)cc1OC
-10.6% | CN1C(=O)C(CC(=O)NCCCN2CCc3ccccc3C2)=C2CCCCC21 (stereo unspecified)

(cont.)
hNpr1 antagonist | SMILES
-12.8% | CCNC(=O)N(C1CC1)C1CCOC2(CCN(C(=O)c3nn(C)c4ccccc34)CC2)C1 (stereo unspecified)
1.9% | CN1[C@@H](CCC(=O)NCc2ccc(F)cc2)CNC(=O)[C@@H]2[C@H]1CCN2Cc1nc2ccccc2n1C
3.8% | COCCNC(=O)Cn1nc(C)c2sc(-c3ccccc3)nc2c1=O
1.7%[70.6 µM] | Cc1onc(-c2cnn(C)c2NCCc2ccccc2)c1C(=O)N1CCCC1
8.4%[70.6 µM] | O=C1C[C@@H]2CCN(C(=O)c3ccccc3)C[C@@H]2CCN1CCc1cnc[nH]1
-8.8% | O=C1C(N2CCN(S(=O)(=O)c3ccc(Cl)s3)CC2)CCN1Cc1ccccn1 (stereo unspecified)
1.3%[70.6 µM] | CC1(C)[C@H](Cc2cc(CN3CCCCC3)on2)C[C@@H]1NS(C)(=O)=O
-2.3%[70.6 µM] | COCCCNC(=O)C1(C)CN(C)Cc2ccc(NCc3ccccc3)nc21 (stereo unspecified)

Continuation.
hNpr1 antagonist | SMILES
1.7% | Cc1cc(C[C@@H]2COC[C@@H]2NC(=O)c2cc(CC(C)C)nc(N)n2)on1
? | O=C(c1ccc(Br)o1)N1CCCN(c2cc(-c3ccc(Cl)cc3)[nH]n2)CC1
5.1% | Cc1ccc(-c2ccc3nnc(CNC(=O)CSc4ccncc4)n3n2)cc1
-18.1% | Cc1cc(=O)n(CC(=O)Nc2ccc(F)cc2)c(N(C)Cc2ccccc2)n1
-0.2%[70.6 µM] | CN1C(=O)[C@@H]2C[C@@H](CN2Cc2ccc(F)cc2)Oc2ccccc21
? | CN(C)c1cccc(C(=O)NC2CCN(c3cc(-c4ccc(F)cc4)[nH]n3)CC2)c1
-5.5% | COc1ccc(C(=O)N2[C@@H]3CC[C@H]2CC(NC(=O)c2cnc(C)cn2)C3)cc1F (stereo partly specified)
-1.1% | CC(=O)N1CCC(N[C@@H]2CC[C@@H]2NC(=O)CCn2nnc3ccccc32)CC1

An excerpt; rates above refer to the full screens.
